Source: PubChem BioAssay
CBX7 inh: CBX7 chromodomain binding inhibitors, primary screen, biochemical, AlphaScreen. AlphaScreen His6-CBX7 / biotin-H3K27me3 peptide binding; active compounds read low. 66,000 compounds, 1.1% hits. AID 1224903, 2016. normalised signal (fraction of DMSO) (no concentration beside the values); in the data active means normalised signal below about 0.5;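 further: 100 nL library stock added to about 20 µL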
Target sequence (O95931 whole entry, looked up): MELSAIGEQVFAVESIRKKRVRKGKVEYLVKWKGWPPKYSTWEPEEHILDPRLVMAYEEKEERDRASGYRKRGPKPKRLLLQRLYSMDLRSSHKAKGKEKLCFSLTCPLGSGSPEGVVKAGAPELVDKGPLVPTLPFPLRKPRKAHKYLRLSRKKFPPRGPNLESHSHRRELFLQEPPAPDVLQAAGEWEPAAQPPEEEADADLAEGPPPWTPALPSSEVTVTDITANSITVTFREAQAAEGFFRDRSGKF
CBX7 inh z-score: further read-out of CBX7 inh, marked with its call; z-score; measured here: z-score of CBX7 signal; some inactives read as strong as hits; reference of the scale not given here;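 same signal on another scale; lower means less binding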
Numbers without * were called inactive; & = joins results of further samples. A portion of the library; rates above refer to the full screens.

nr | SMILES | CBX7 inh | CBX7 inh z-score
1 | COCc1cc(=O)n2[nH]cnc2n1 | 1.05 | 1.3
2 | COc1cc2c(C(=O)NC3CCCCC3)cn(C)c(=O)c2cc1OC | 1.03 | 1.11
3 | Cc1ccccc1NC(=O)CCc1c(C)nc2cc(-c3ccc(Cl)cc3)nn2c1C | 1.08 | 1.63
4 | CCOc1ccccc1NC(=O)c1c(NC(=O)Cc2ccc(OC)cc2)sc2c1CCC2 | 1.03 | 0.972
5 | COc1cc2c(cc1OC)C(c1ccc(C)c(Br)c1)CC(=O)N2 (stereo not given) | 0.856 | -0.191
6 | Cc1ccc(C)c(Cc2c(C)nc3c(C(=O)NC(C)C)cnn3c2C)c1 | 0.979 | -0.815
7 | CCOC(=O)N1CCN(c2c(NC3CCN(Cc4ccccc4)CC3)c(=O)c2=O)CC1 | 1.02 | 0.425
8 | Cc1ccc(Cn2nnc3c(=O)n(CC(=O)NC4CCCC4)cnc32)cc1 | 1.01 | 0.115
9 | COc1cccc(-c2nn3c(-c4ccccc4Cl)nnc3s2)c1 | 1 | -0.0178
10 | CCOc1ccc(CCNC(=O)C2CCCN(c3nc4ccc(OCC)cc4s3)C2)cc1 (stereo not given) | 0.933 | -1.8
11 | Cc1ccccc1-n1nc(-c2ccc(Cl)cc2)cc1-c1ccc(Cl)cc1 | 1.07 | 1.07
12 | Cc1ccc(C)c(NC(=O)c2ccc(CNc3c(N4CCCCC4)c(=O)c3=O)cc2)c1 | 0.933 | -0.153
13 | COc1ccc(-c2nc3ccccc3o2)cc1NC(=O)COc1ccc(Cl)c(C)c1 | 1.06 | 0.0634
14 | CCOC(=O)c1cnc2ccc(OCC)cc2c1Nc1ccc(C(=O)O)cc1 | 0.971 | -0.779
15 | O=C(Nc1ccc(-c2nc3ccccc3o2)c(O)c1)c1cccnc1 | 1 | 0.00356
16 | CCN(CC)c1ccc(NS(=O)(=O)c2ccc3c(c2)CCN3C(=O)C2CC2)c(C)c1 | 0.654 | -9.84
17 | Cc1cc(C)cc(C(=O)Nc2c3c(nn2-c2ccc(F)cc2)CSC3)c1 | 1.12 | 2.12
18 | COC(=O)c1cc2ccsc2n1Cc1ccccc1F | 0.865 | -3.87
19 | CCOC(=O)CC(NCc1ccncc1)c1cccs1 (stereo not given) | 0.815 | -0.208
20 | COCCCNC(=O)c1cn(CC(C)C)c(=O)c2cc(OC)c(OC)cc12 | 1.02 | 0.542
21 | CC(C)c1ccc(-c2csc(NC(=O)c3cccc(Cl)c3)n2)cc1 | 1.06 | 0.827
22 | CCOC(=O)c1c(NC(=O)c2cccc(OCC)c2)sc2c1CCCC2 | 1.34 | 13.5
23 | COC(=O)c1c(NC(=O)COc2ccc(Cl)c(C)c2)sc2c1CCC(C)C2 (stereo not given) | 1.15 | 2.32
24 | COc1ccc(Oc2nc(-c3ccccc3F)nc3ccccc23)cc1 | 1.26 | 3.82
25 | Cc1ccc(-c2ccc(=O)n(CCC(=O)NCCN3C(C)CCCC3C)n2)cc1 (stereo not given) | 1.08 | 0.167
26 | COc1cccc(C(=O)Nc2ccccc2-c2nc3ccccc3[nH]2)c1 | 1 | 0.121
27 | O=C(Nc1ncc2c(n1)CC(c1ccccc1Cl)CC2=O)c1ccccc1 (stereo not given) | 1.06 | 1.78
28 | COc1ccc(CNC(=O)c2ccc3c(=O)n(CCc4ccccc4)c(=O)[nH]c3c2)cc1 | 0.945 | -1.36
29 | CCCCN(C)C(=O)CN1C(=O)C(CC)Oc2ccc(C)cc21 (stereo not given) | 0.927 | -1.37
30 | CCc1nc2c(cnn2-c2ccc(Cl)cc2)c(=O)n1-c1ccc(C)cc1 | 0.954 | -0.589
31 | CCCC1CCC(c2ccc(-c3ccc(CC)cn3)cc2F)CC1 (stereo not given) | 1.07 | 0.955
32 | CCOC(=O)c1sc2ncn(CC(=O)Nc3ccccc3OC)c(=O)c2c1C | 0.963 | -0.995

Gathered by group: those above with fluorine
nr | SMILES | CBX7 inh | CBX7 inh z-score
17 | Cc1cc(C)cc(C(=O)Nc2c3c(nn2-c2ccc(F)cc2)CSC3)c1 | 1.12 | 2.12
18 | COC(=O)c1cc2ccsc2n1Cc1ccccc1F | 0.865 | -3.87
24 | COc1ccc(Oc2nc(-c3ccccc3F)nc3ccccc23)cc1 | 1.26 | 3.82
31 | CCCC1CCC(c2ccc(-c3ccc(CC)cn3)cc2F)CC1 (stereo not given) | 1.07 | 0.955

Later entries.
nr | SMILES | CBX7 inh | CBX7 inh z-score
33 | COC(=O)c1cccc(Nc2nc(-c3ccccc3Cl)nc3ccccc23)c1 | 0.964 | -1.08
34 | Cc1cccc(CN2CCN(CC(=O)N3CCCCCC3)C2=O)c1 | 1.05 | 0.802
35 | CCn1c(C(=O)NCCc2ccccc2)cc2sc(Cl)cc21 | 1.03 | 1.1
36 | CCOc1ccc(-c2nc(C#N)c(NCC(C)C)o2)cc1 | 1 | 0.053
37 | Cc1nn(CC(=O)NCc2ccccn2)c(=O)c2ccccc12 | 1.04 | 0.797
38 | CCOC(=O)C1CCCN(C(=O)Cn2nc(Cc3ccncc3)c3ccccc3c2=O)C1 (stereo not given) | 1.01 | 0.221
39 | Cc1cc(C)c(C(=O)c2ccc(C(=O)NCCc3nc(-c4ccccc4)cs3)cc2)c(C)c1 | 0.654 | -1.22
40 | O=C(Nc1cccc(C(F)(F)F)c1)c1cc(-c2ccc(Cl)cc2)on1 | 1.05 | 2.21

3 entries from above, with one line to a screen.
(17) Cc1cc(C)cc(C(=O)Nc2c3c(nn2-c2ccc(F)cc2)CSC3)c1
(18) COC(=O)c1cc2ccsc2n1Cc1ccccc1F
(19) CCOC(=O)CC(NCc1ccncc1)c1cccs1 (stereo not given)
Screen / compound no.	17	18	19
CBX7 inh	1.12	0.865	0.815
CBX7 inh z-score	2.12	-3.87	-0.208

Later entries.
nr | SMILES | CBX7 inh | CBX7 inh z-score
41 | Cc1ccccc1N(C)C(=O)CCc1nc(-c2ccccc2F)no1 | 1.04 | 0.891
42 | CCOc1cccc2sc(NC(=O)c3ccc(S(=O)(=O)N4CCCc5ccccc54)cc3)nc12 | 1.19 | 2.09
43 | O=C1CC(c2ccccc2Cl)c2cc3c(cc2N1)CCC3 (stereo not given) | 0.997 | -0.0551
44 | Cc1ccccc1C(=O)Nc1sc(Cc2ccccc2)c(C)c1C(N)=O | 0.945 | -0.706
45 | Cc1ccc(CCNC(=O)C2CCN(c3nn4c(=O)cc(C)nc4s3)CC2)cc1 | 1.29 | 2.72
46 | COc1ccc(Cl)cc1NC(=O)CSc1nnc(Cc2cccn2C)n1-c1ccc(C)cc1 | 0.98 | -0.488
47 | CC1CCN(S(=O)(=O)c2ccc3nc(-c4ccccn4)cc(C(=O)NC4CCCCC4)c3c2)CC1 | 1 | 0.0701
48 | Cc1nnc(Sc2cc(C(=O)NCCN(C)CCc3ccccc3)c3ccccc3n2)s1 | 0.929 | -0.759
49 | O=C(Nc1ccc(F)c(F)c1)C(NS(=O)(=O)c1cccs1)c1ccccc1 (stereo not given) | 1.23 | 2.57
50 | Cn1nc(C(=O)NCCN2CCOCC2)c2ccccc2c1=O | 0.964 | -1.49
51 | Cc1ccc(S(=O)(=O)NC(Cc2ccccc2)C(=O)Nc2nc3ccc(C)cc3s2)cc1 (stereo not given) | 0.995 | -0.109
52 | Cc1ccc(-c2ccc(=O)n(CCC(=O)NCCCN3CC(C)CC(C)C3)n2)cc1 (stereo not given) | 1.01 | 0.354
53 | CCN1CCCC1CNC(=O)c1ccc2c(c1)N(Cc1ccccc1)CCS2 (stereo not given) | 0.92 | -0.106
54 | CCCCC1CCC(C(=O)Nc2c3c(nn2-c2ccc(OC)cc2)CSC3)CC1 (stereo not given) | 1.03 | 0.527
55 | COc1cc2ccccc2cc1C(=O)Nc1ccc(Cl)c(-c2nc3ccccc3[nH]2)c1 | 0.994 | -0.244
56 | O=C(CN1C(=O)COc2ccc(S(=O)(=O)N3CCOCC3)cc21)NCCN1CCCC1 | 1.05 | 2.29
57 | Cc1cc(N2CCN(c3ccccn3)CC2)n2nc(C)nc2n1 | 1.04 | 0.837
58 | O=C1CN(C(=O)c2cccc(Cl)c2)C(c2ccccc2)c2cc(Br)ccc2N1 (stereo not given) | 1&1 | 0.1&0.0263
59 | CCOC(=O)c1[nH]c2c(c1Cc1ccccc1)C(=O)CC(c1ccccc1)C2 (stereo not given) | 0.859 | -0.928
60 | O=C(Cn1cnc2c(nnn2Cc2ccc(F)cc2)c1=O)NCC1CCCO1 (stereo not given) | 0.911 | -1.47
61 | Cc1ccnc(N2C(=O)c3ccccc3C2Nc2ccccc2Cl)c1 (stereo not given) | 1.06 | 2.06
62 | CCOc1ccccc1NC(=O)c1cn(-c2ccc(F)cc2F)c(=O)c2ccccc12 | 0.999 | -0.0436
63 | Cc1ccc2c(c1)N(CCCC(=O)NCc1ccc3c(c1)OCO3)C(=O)CO2 | 1.16 | 0.317
64 | CCCCCCCNC(=O)c1cc(-c2ccncc2)nc2ccccc12 | 1.04 | 0.963

Quoted from the listing.
CBX7 inh z-score result of no. 62 : -0.0436
CBX7 inh result of no. 61 : 1.06

2 consecutive entries from above, quoted:
nr | SMILES | CBX7 inh | CBX7 inh z-score
57 | Cc1cc(N2CCN(c3ccccn3)CC2)n2nc(C)nc2n1 | 1.04 | 0.837
58 | O=C1CN(C(=O)c2cccc(Cl)c2)C(c2ccccc2)c2cc(Br)ccc2N1 (stereo not given) | 1&1 | 0.1&0.0263

Remaining list, next part:
nr | SMILES | CBX7 inh | CBX7 inh z-score
65 | COc1ccc(C(=O)CC2(O)C(=O)Nc3ccccc32)cc1 (stereo not given) | 1.01 | 0.185
66 | O=C(NCc1ccc(F)cc1)c1ccc2c(c1)N(Cc1ccc(F)cc1)C(=O)CS2 | 0.865 | -1.34
67 | CCc1nnc(NC(=O)CSc2nnc(Cc3cccn3C)n2-c2ccc(F)cc2)s1 | 0.944 | -1.34
68 | Cc1cc(N2CCN(C)CC2)nc2ccc(NC(=O)c3cnccn3)cc12 | 0.941 | -0.646
69 | CCOC(=O)c1cnc2cc(Cl)c(OC)cc2c1Nc1cccc(OC)c1 | 1.07 | 1.76
70 | CC1(C)CC(=O)C2=C(C1)N(c1ccccc1)C(=O)CC2c1ccsc1 (stereo not given) | 1.05 | 0.491
71 | c1ccc(-c2cnc(SCc3nc4ccccc4[nH]3)[nH]2)cc1 | 0.854 | -3.65
72 | Cc1ccccc1C(=O)Nc1c2c(nn1-c1ccc(Cl)cc1)CSC2 | 1.09 | 2.29
73 | Cc1ccc(NC(=O)CC2Oc3ccccc3NC2=O)c(Cl)c1 (stereo not given) | 0.937 | -1.22
74 | CCOc1ccc(-n2c(Cc3cc(=O)[nH]c(=O)[nH]3)nnc2SCc2cc(C)ccc2C)cc1 | 1.02 | 0.645
75 | O=S(=O)(c1ccccc1)c1nc(-c2ccc(F)cc2)oc1SCc1ccc(F)cc1 | 0.906 | -0.78
76 | Cc1cccc(NC(=O)C2CCCN(S(=O)(=O)c3cccnc3)C2)c1C (stereo not given) | 1.03 | 0.0344
77 | COC(=O)c1c(NC(=O)COc2ccccc2C)sc2c1CCCC2 | 1.06 | 2.42
78 | COc1ccc(-c2noc(COc3ccc(C(C)C)cc3)n2)cc1OC | 1.24 | 7.94
79 | Cn1c2ccccc2c2c(C(=O)NCCC3=CCCCC3)cn(C3CCCCC3)c(=O)c21 | 1.03 | 0.783
80 | COc1ccc(-c2nc(-c3ccccc3)c(-c3ccc(Sc4ccccc4)cc3)[nH]2)cc1OC | 0.726 | -10.6
81 | COc1ccc(-c2[nH]c(-c3cccc(OC)c3)nc2SCC(=O)Nc2ccccc2)cc1 | 0.791 | -9.92
82 | CN(C)CCNC(=O)Cn1nc(Cc2cccnc2)c2ccccc2c1=O | 1.08 | 1.96
83 | Cc1noc(/C=C/c2cccs2)c1S(=O)(=O)N1CCCC(C(=O)N2CCN(C)CC2)C1 (stereo not given) | 1.02 | 0.284
84 | Cc1ccc(NC(=O)Cn2cnc3sc(C(=O)N(C)Cc4ccccc4)c(C)c3c2=O)cc1Cl | 0.927 | -0.706
85 | CCn1cc(C(=O)N(C)Cc2ccccc2)c2cc(OC)c(OC)cc2c1=O | 1.29 | 2.5
86 | CC(C)C(NS(=O)(=O)c1cccs1)C(=O)N1CCN(c2cccc(C(F)(F)F)c2)CC1 (stereo not given) | 0.878 | -2.42
87 | Cc1ccnc(Nc2nc(-c3c(C)nc4ccccn34)cs2)c1 | 1.07 | 0.0814
88 | Cc1ccn2c(=O)c(C(=O)Nc3ccccc3C)cnc2c1 | 1.02 | 0.617
89 | Cc1cc(C)cc(OCC(=O)Nc2c(C(=O)c3ccc(F)cc3)oc3ccccc23)c1 | 1.17 | 0.59
90 | CC(=O)Nc1ccc(NC(=O)c2cncc(Br)c2)cc1 | 1.09 | 1.89
91 | CC(C)n1c(C2CC(=O)N(c3ccc(Br)cc3)C2)nc2ccccc21 (stereo not given) | 0.915 | -0.53
92 | O=C1CC(N2CCN(c3cccc(Cl)c3)CC2)C(=O)N1CCc1ccccc1 (stereo not given) | 0.918 | -1.59
93 | Cc1ccc(C(O)(CCN2CCCCC2)c2ccccc2)cc1 (stereo not given) | 1.1 | 1.95
94 | CCS(=O)(=O)NCCc1cc2ccc(OC)cc2[nH]c1=O | 1.05 | 0.339
95 | CCOc1cccc(C(=O)Nc2cc(-c3nn4c(C)nnc4s3)ccc2C)c1 | 1 | 0.0518
96 | c1ccc(-c2nnc3ccc(N4CCOCC4)nn23)cc1 | 0.961 | -0.549
97 | COc1ccc(CNC(=O)C(=O)NC(C)C(c2cccs2)N2CCN(c3ccccc3)CC2)cc1 (stereo not given) | 0.951 | -0.513
98 | Cc1ccc(-c2nnc(SCC(=O)N3CCCC3)o2)cc1C | 1.06 | 2.48
99 | Cc1ccc(NS(=O)(=O)c2ccc3[nH]c(=O)[nH]c3c2)c(C)c1 | 0.987 | -0.0127
100 | CCCCCc1ccc(-c2ccc(-c3noc(-c4c(-c5ccccc5Cl)noc4C)n3)cc2)nc1 | 1.01 | 0.214
101 | O=C(Nc1ccc(-c2nc3ccccc3o2)cc1)c1cccnc1Cl | 1.07 | 1.26
102 | COc1ccc(CCN(C(C)=O)C2CC(=O)N(c3ccccc3)C2=O)cc1OC (stereo not given) | 0.99 | -0.259
103 | CCCSCCCNC(=O)C1CCN(c2nn3c(=O)cc(C)nc3s2)CC1 | 1.02 | 0.143
104 | O=C(NC1(c2ccccc2)CC1)N1CCN(c2ccc(F)cc2)CC1 | 1.09 | 1.59
